MgrA DNA FP: S. aureus MgrA-DNA binding modulation; fluorescence polarization; inhibition, %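 (about 10 µg/mL by stock and volumes)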; 0.13% of 84,000 active;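 active = above 50% in either of two replicates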;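 note: 0% = protein plus DNA without compound and 100% = DNA alone without protein; higher means less MgrA bound to DNA so lower polarization; one replicate is shown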
S aureus helic: blocks Staphylococcus aureus DNA helicase. 0.05% of 120,000 active. purified S. aureus helicase, fluorescence unwinding assay; about half of the hits fall short of the stated cut. inhibition, %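 (tested at about 80 µM)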. AID 485395;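 active = both duplicates at 50% or more, or one of them with a favoured structure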;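 note: 0% = mean of negative control wells and 100% = mean of positive control wells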
Numbers without * were called inactive; nt = not tested or not shown.

MgrA DNA FP | S aureus helic | SMILES
-1.6 | 6 | Cc1ccc(C(=O)C2OC(=O)C(C)(C)C(=O)C2(C)C)cc1 (stereo not drawn)
-1.5 | 17 | CCOC(=O)Nc1ccc(Cl)c(Cl)c1
-4.0 | -1 | COc1ccc(SCC(=O)O)cc1
0.8 | 3 | Cc1nc2nc(SCC(=O)N3CCC4(CC3)OCCO4)nn2c(C)c1Cc1ccccc1Cl
-6.2 | 12 | COc1ccc(CN2CC(C)OC(C)C2)cc1 (stereo not drawn)
0.9 | nt | OC(COc1ccccc1)CN1CCNCC1 (stereo not drawn)
8.4 | 1 | CN(C)C(CN)c1ccco1 (stereo not drawn)
nt | -8 | CCOc1ccc(-c2cc(C(N)=O)on2)cc1
nt | -30 | Cc1oc2nc[nH]c(=O)c2c1C(=O)NC1CCCCCC1
0.7 | 0 | Nc1ccc(-c2nc3c(Cl)cccc3[nH]2)cc1
nt | 12 | OC(c1ccccc1)c1ccc(Cl)s1 (stereo not drawn)
-2.6 | -6 | O=C(O)CCC(=O)c1cccs1
nt | 21 | CCOC(=O)c1c(C)n(C)c2ccc(OCC(O)CN(CC)CC)cc12 (stereo not drawn)
1.1 | 1 | CC(C)CCNC(=O)c1ccco1
0.7 | -6 | Cc1cccc(OCC(=O)NC2CCCC2)c1
3.1 | 6 | O=c1c(-c2nnc3c(Cl)nc4ccccc4n23)coc2ccccc12
-0.2 | 17 | O=C(O)c1ccccc1C(=O)OCCN1CCOCC1
nt | 16 | COC(=O)/C=C1\SC(NC(=O)c2ccccc2)NC1=O (stereo not drawn)
0.6 | nt | COc1ccc(C2Nc3ccccc3C(=O)N2Cc2ccccc2)cc1CN1C(=O)c2ccccc2C1=O (stereo not drawn)
-1.9 | nt | O=S(=O)(NCC1COc2ccccc2O1)c1ccc(N2CCOCC2)nc1 (stereo not drawn)
nt | 0 | Clc1ccc(-n2ncc3c(NCc4ccco4)ncnc32)cc1
nt | 5 | N#Cc1c(NC(=O)CSC2=NCCS2)sc2c1CCCC2
-1.2 | 1 | O=C(CC1CCCCC1)NCCN1CCOCC1
nt | -19 | CCc1ccc(NC(=O)CSC2=C(C#N)C(c3ccco3)C(C(N)=O)=C(C)N2)cc1 (stereo not drawn)
nt | 15 | C#CCn1cc(/C=N\NC(=O)COc2cccc3cccnc23)c2ccccc21
nt | 17 | CC1CCCCN1C(=O)c1cnc2n(c1=O)CCS2 (stereo not drawn)
-0.6 | 8 | COC(=O)c1c(C)n(-c2ccc(OC)cc2)c2ccc(O)cc12
-2.0 | nt | CC1(C2(C)OCCO2)OCCO1
1.1 | 7 | Cc1cc(C)n(/N=C/c2ccccc2O)c(=O)c1
0.8 | nt | CCCCC1(COC(=O)Nc2cccc(Cl)c2)C(=O)N(c2ccccc2)N(c2ccccc2)C1=O
-1.1 | nt | OC(COc1ccc(Cl)cc1Cl)Cn1ccnc1 (stereo not drawn)
nt | 34 | COc1ccc(OC)c(NC(=O)CC(Cc2ccccc2OC)C(=O)O)c1 (stereo not drawn)
0.8 | 0 | Cc1[nH]c2ccccc2c(=O)c1CN1CCCCC1
nt | -20 | c1ccc2[nH]c(SCc3cn4ccccc4n3)nc2c1
-2.5 | -3 | O=C(COC(=O)c1cccs1)NCC1CCCCC1
nt | 1 | O=C(COC(=O)c1ccc(N2CCCC2=O)cc1)c1ccc2c(c1)OCCO2
nt | 16 | CCCN(Cc1cccs1)C(=O)Nc1cccc(C)c1
nt | 3 | COc1ccc2sc(C(=O)O)c(Br)c2c1
nt | 15 | O=C(CN1C(=O)c2ccccc2C1=O)OCCCn1c(=O)[nH]c2ccccc21
nt | -7 | NC(=O)CCNC(=O)c1ccc(Cl)cc1
-1.6 | 14 | NC(=O)c1ccccc1NC(=O)C1COc2ccccc2O1 (stereo not drawn)
-0.2 | 13 | O=C(Nc1cnn(Cc2ccc(F)cc2)c1)c1cnccn1
nt | -31 | CN(C)C(=O)Nc1ccc(C(C)(C)C)cc1
nt | -15 | O=c1[nH]c2ccc(NCc3ccccc3C(F)(F)F)cc2[nH]1
2.5 | nt | O=S(=O)(c1ccc(Cl)cc1)n1ccc(-c2cnc3ccccc3n2)c1
26 | 14 | CCCCC(=O)Cc1ccco1
-0.4 | -1 | COc1cccc(CNC(=O)c2ccc(Nc3nc4ccccc4n4nnnc34)cc2)c1
0.1 | 3 | O=C(Cc1ccc(F)cc1)N/N=C/c1ccc(-c2ccc(Cl)c(C(=O)O)c2)o1
-1.5 | 6 | CCn1c(=NC(=O)c2ccc(S(=O)(=O)N3CCCC3)cc2)sc2c3ccccc3ccc21
nt | -10 | CCC(=O)N=C1SC2CS(=O)(=O)CC2N1c1ccc(F)c(Cl)c1 (stereo not drawn)

Continued:
MgrA DNA FP | S aureus helic | SMILES
nt | 4 | CC1CC(=O)Nc2ccccc2N1C(=O)Cn1ncc(Cl)c(Cl)c1=O (stereo not drawn)
0.6 | nt | Fc1cccc(N2N=C(/C=C/c3cccs3)CC2c2cccs2)c1 (stereo not drawn)
nt | -8 | CCOP(C)(=O)/C(C#N)=C(\O)c1cc(OC)c(OC)c(OC)c1 (stereo not drawn)
nt | 2 | NC(=O)NCCC1=CCCCC1
nt | -1 | Cn1c(C(=O)O)c(S(=O)(=O)c2ccc(Cl)cc2)c2ccccc21
nt | 5 | O=C(O)c1ccncc1Br
nt | 13 | O=C(NCCSc1ncc(-c2ccccc2)[nH]1)c1ccco1
nt | -16 | O=C(NCc1ccc(Cl)cc1)c1cccnc1OCC(F)(F)F
nt | 8 | O=C(NCc1cccc(CNC(=O)c2cnccn2)c1)c1cnccn1
nt | -4 | CC(C)(C)C1CCC(C(=O)OCC(=O)Nc2ccc3[nH]c(=O)[nH]c3c2)CC1 (stereo not drawn)

Taken from above:
`Cc1nc2nc(SCC(=O)N3CCC4(CC3)OCCO4)nn2c(C)c1Cc1ccccc1Cl` in S aureus helic shows 3
`Cc1ccc(C(=O)C2OC(=O)C(C)(C)C(=O)C2(C)C)cc1` (stereo not drawn) in MgrA DNA FP shows -1.6
`NC(=O)NCCC1=CCCCC1` in S aureus helic shows 2
`O=C(NCc1cccc(CNC(=O)c2cnccn2)c1)c1cnccn1` in S aureus helic shows 8
`CCCN(Cc1cccs1)C(=O)Nc1cccc(C)c1` in S aureus helic shows 16
`O=c1[nH]c2ccc(NCc3ccccc3C(F)(F)F)cc2[nH]1` in S aureus helic shows -15
`O=C(COC(=O)c1cccs1)NCC1CCCCC1` in MgrA DNA FP shows -2.5

Going on with the list:
MgrA DNA FP | S aureus helic | SMILES
2.7 | nt | CCOC(=O)N1CCN(CN2CCCCC2=O)CC1
0.8 | 1 | CN(C)c1ccc(C=NCC2COc3ccccc3O2)cc1 (stereo not drawn)
-0.9 | nt | Cc1ccc(NC(=O)N2C(=O)C3(OCCO3)c3ccccc32)cc1
-3.0 | 12 | C=CCNC(=O)c1cc(-c2ccc(Cl)cc2Cl)oc1C
-4.0 | nt | O=C(CSc1n[nH]c(-c2ccccc2F)n1)c1ccccc1
-1.6 | nt | COc1cc(NC(=O)c2cc3nc(-c4ccc(OC)c(OC)c4)cc(C(F)(F)F)n3n2)cc([N+](=O)[O-])c1
-2.4 | nt | COc1ccc(-c2[nH]ncc2C)cc1F
nt | -11 | COC(=O)c1c(C)[nH]c(C(=O)C(C)N(C)Cc2ccccc2OC)c1C (stereo not drawn)
nt | 6 | CC1CC(OCC(O)CN2CCN(Cc3ccc(Cl)cc3)CC2)CC(C)(C)C1 (stereo not drawn)
-0.7 | 12 | CCCOC(=O)Nc1sc2c(c1C(N)=O)CCC2
2.5 | -17 | CCSC1=C(C#N)C(=N)n2c1cc1c2CCCC1
-0.8 | nt | CCC(NC(C)C)C(O)c1ccc(O)c(O)c1 (stereo not drawn)
-1.1 | 10 | O=c1c2cnn(-c3ccccc3)c2ncn1C/C=C/c1ccccc1
nt | -26 | CCOC(=O)c1ccc(NC(=O)C(CC)Sc2nnc(C)n3c2cc2occc23)cc1 (stereo not drawn)
1.6 | 13 | O=C(N/N=C/c1ccsc1)c1c[nH]c2ccccc12
-1.6 | 9 | O=C(COC(=O)c1ccco1)Nc1nc2ccccc2s1
nt | -1 | Cc1ccc(-n2c(NN)nc3ccccc3c2=O)c(C)c1
nt | 17 | CC(C)Oc1cccc2c1CCN(Cc1ccccc1)C2=O
nt | -9 | COc1cccc(NC(=O)CC(NC(C)=O)c2ccccc2)c1 (stereo not drawn)
-1.1 | nt | CC1=N/C(=C\c2ccc3c(c2)OCO3)C(=O)O1
nt | -9 | O=C(CCNS(=O)(=O)c1ccccc1F)N1CCN(c2ccccc2Cl)CC1
nt | 6 | CCOC(=O)c1cc(S(=O)(=O)C(C)C)c(SC)s1
nt | -6 | CCc1nnc2sc(-c3ccc(Cl)cc3)nn12
nt | 10 | CCCNC(=O)c1ccc(-c2nc(CS(=O)(=O)c3ccccc3)c(C)o2)cc1
0.9 | 18 | CSc1nnc2c(n1)OC(c1ccccc1)N(C(C)=O)c1ccccc1-2 (stereo not drawn)
nt | 3 | O=C(O)CCC(=O)Nc1nc2n(n1)C(c1ccccc1)C=C(c1ccccc1)N2 (stereo not drawn)
1.6 | -3 | CC1=C(C(=O)OC(C)C)C(C2CC=CCC2)NC(=O)N1 (stereo not drawn)
-1.1 | nt | O=S(=O)(CCN1CCN(C(c2ccccc2)c2ccccc2)CC1)c1ccc(Cl)cc1
nt | 18 | O=C(Nc1nnc(SCc2ccccc2)s1)c1ccccc1Cl
nt | 12 | CCN(Cc1ccccc1)Cc1csc(C)c1C

Pulled by compound from the entries so far:
MgrA DNA FP | S aureus helic | SMILES
1.6 | -3 | CC1=C(C(=O)OC(C)C)C(C2CC=CCC2)NC(=O)N1 (stereo not drawn)
0.9 | 18 | CSc1nnc2c(n1)OC(c1ccccc1)N(C(C)=O)c1ccccc1-2 (stereo not drawn)
nt | 3 | O=C(O)CCC(=O)Nc1nc2n(n1)C(c1ccccc1)C=C(c1ccccc1)N2 (stereo not drawn)
nt | 18 | O=C(Nc1nnc(SCc2ccccc2)s1)c1ccccc1Cl
nt | -6 | CCc1nnc2sc(-c3ccc(Cl)cc3)nn12
-1.1 | nt | O=S(=O)(CCN1CCN(C(c2ccccc2)c2ccccc2)CC1)c1ccc(Cl)cc1

Other entries
MgrA DNA FP | S aureus helic | SMILES
-2.3 | 2 | O=C(NCc1ccco1)C(c1cccs1)N(C(=O)C1COc2ccccc2O1)c1cccc(O)c1 (stereo not drawn)
0.7 | nt | COc1ccc(NC(=O)N(Cc2ccccc2)C(=O)CC#N)cc1
nt | 4 | Nc1nncn1C(=O)CC1CCS(=O)(=O)C1 (stereo not drawn)
8.9 | 0 | Cc1nc2c(c(C)c1CCC(=O)N1CCC(C)CC1)c(=O)n(C)c(=O)n2C
1.5 | 9 | Fc1ccccc1OCCSc1nc2ccccc2s1
3.0 | nt | CSC1=C(C#N)C(=O)NC(c2cccs2)S1 (stereo not drawn)
-1.4 | nt | CSc1nc(N2CCCC2)nc(-c2ccco2)c1C#N
2.0 | nt | O=C(Nc1ccccc1C(=O)Nc1ccncc1)c1ccccc1
-3.3 | nt | COc1cc(CCC(=O)NNC(=O)c2ccc(Cl)cc2)cc(OC)c1OC
nt | 12 | Cc1ccc(C)c(SCC(=O)N(C)C)c1
-0.1 | nt | N#CCc1ccc(OCc2cnc(Cl)s2)cc1
nt | -5 | Cn1nc(C(=O)NCCCN2CCOCC2)c2c1-c1ccccc1S(=O)(=O)C2
3.8 | -9 | CC(C)CN(CC(C)C)C(=O)c1cc2ccccc2oc1=O
-0.5 | 4 | Cn1c(CC23CC4CC(CC(C4)C2)C3)nnc1SCC(N)=O
1.2 | -1 | CC1CCCC(NCCN2CCOCC2)C1 (stereo not drawn)
-1.1 | 12 | O=C(NC1CCCCC1)c1ccc(S(=O)(=O)N2CCCC2)cc1
0.8 | 10 | CC(=O)Nc1ccccc1-c1ccccc1
-1.9 | 2 | Cc1ccccc1NC(=S)N1CCCCC1
-3.8 | 12 | OCc1ccccc1CNCc1ccccc1
nt | -22 | Cc1cccc(NC(=O)C2C3C=CC4(O3)C2C(=O)N(Cc2cccnc2)C4C(=O)NC2CCCC(C)C2C)c1 (stereo not drawn)

An excerpt from above in order of their number in MgrA DNA FP, lowest first.
MgrA DNA FP | S aureus helic | SMILES
-3.8 | 12 | OCc1ccccc1CNCc1ccccc1
-2.0 | nt | CC1(C2(C)OCCO2)OCCO1
-1.6 | 14 | NC(=O)c1ccccc1NC(=O)C1COc2ccccc2O1 (stereo not drawn)
1.1 | 1 | CC(C)CCNC(=O)c1ccco1
3.0 | nt | CSC1=C(C#N)C(=O)NC(c2cccs2)S1 (stereo not drawn)

Carrying on:
MgrA DNA FP | S aureus helic | SMILES
0.3 | 9 | COC(=O)C(Cc1c[nH]c2ccccc12)NC(=O)C12CC3CCC1CC(C3)C2 (stereo not drawn)
nt | 11 | Cc1ccc(S(=O)(=O)NC2(C(F)(F)F)C(=O)N(Cc3ccco3)C3=C2C(=O)CC(C)(C)C3)cc1 (stereo not drawn)
2.5 | 3 | Nc1ccc(C(=O)Nc2nc3ccccc3s2)cc1
0.2 | 9 | Fc1ccccc1-c1n[nH]c(=S)n1CCCN1CCOCC1
nt | 4 | Cc1ccn(CCC(=O)Nc2ccc(-c3ccno3)cc2)n1
nt | 12 | N#CCc1ccc(NC(=O)Nc2cccc3ccccc23)cc1
0.0 | nt | O=C(CSc1nccc(-c2cccs2)n1)N1CCOCC1
-0.5 | -27 | O=C(CSc1ccccn1)Nc1cc(C(=O)O)cc(C(=O)O)c1
-0.5 | 0 | O=C(NCc1ccccc1)c1ccc2c(=O)n3c(nc2c1)CCCCC3
nt | 22 | O=C(c1cccc(-n2cnnn2)c1)N(CCc1ccccc1)Cc1cccs1
0.9 | nt | Cc1ccc(CSc2ssc(=S)c2-c2ccccc2)cc1
25 | 15 | CC1=NN(c2ccccc2)C(=O)/C1=C/c1ccc(OC(=O)c2ccco2)c(Cl)c1
-0.6 | 9 | NC(=S)N1N=C(c2ccccc2)CC1c1ccccc1 (stereo not drawn)
nt | 6 | Cc1ccccc1OCC(=O)Nc1ccc(S(=O)(=O)NC(C)(C)C)cc1

Source: PubChem (ICCB-Longwood Screening Facility, Harvard Medical School)

A portion of the library. The share of hits here may be higher or lower than overall.
